From PubChem
VACV mCherry inh: vaccinia inhibition (mCherry reporter); Vaccinia virus mCherry reporter infection, fluorescence; about a quarter of the inactives have no number; Potency, µM (highest dose often 36.5 µM), without a hit: top-dose activity change, negative = inhibition, most hits filed as inhibitors; hit rate 0.63% among 310,000; active = well fitted inhibition curve with a large enough effect; inconclusive = small, poorly fitted or top-dose-only effect; inactive = no such curve, though single readings can be large or run the other way; tested in A549 cells; note: nearly all actives have a fitted effect of over 35% in size; inactives centre near -10
VACV Venus inh: vaccinia inhibition (Venus reporter). hit rate 0.46% among 330,000. AID 720580. Potency, µM (top dose mostly 36.5 µM), for inactives: at the highest dose activity change, negative = inhibition, usual class: inhibitors. Vaccinia virus Venus reporter expression, fluorescence; active means well fitted inhibition curve with a large enough effect; inconclusive means small, poorly fitted or top-dose-only effect; inactive means no such curve, though single readings can be large or run the other way; tested in A549 cells; note: nearly all actives have a fitted effect of over 30% in size; inactives centre near -10
An asterisk follows results filed as active; i = inactive; ? = inconclusive; . = no result given; & = joins results of further samples; [ ] = another dose, or the depositor's remark. % is set by controls: 0 for no effect and ±100 for the full control effect; potency is the fitted concentration of half-maximal effect. Rows were taken by chance (roughly 0.88% active in at least one column).

structure	VACV mCherry inh	VACV Venus inh
Cc1ccc2cc(C)c(SCC#N)nc2c1	i	-24%
Cc1ccc(-c2nn(-c3ccccc3)cc2C(=O)Nc2ccc(C(=O)O)cc2)cc1	3%	4%
CCOc1ccccc1NC(=O)C1=C(C)NC(=O)NC1c1cccc(OC)c1OC (centres undefined)	-18%	-10%
CCN(CC)S(=O)(=O)c1ccc(/C=C/C(=O)N(c2ccccn2)C2CCCCC2)cc1	-14%	-8%
CCCN1C(=O)/C(=C/c2c(NCCCOC(C)C)nc3c(C)cccn3c2=O)SC1=S	-15%	11%
CC1CCC2(CC1)NC(=O)N(CC(=O)c1ccc[nH]1)C2=O (centres undefined)	.	-9%
COCCNC(=O)C1(C)CCCN(C(=O)c2cccc(Cl)c2)C1 (centres undefined)	-24%	0%
S=C(NCCCc1ccccc1)Nc1ccc(Cl)cc1	-8%	?
CCOC(=O)C1=C(CN(C)Cc2ccccc2)NC(=O)NC1c1ccc(OC)cc1 (centres undefined)	-3%	-17%
CN(C)S(=O)(=O)c1cccc(C(=O)Nc2ccccc2)c1	0%	-6%
COc1ccccc1NC(=O)c1cc2c(cc1Cl)N1CCCCCC1=NS2(=O)=O	-13%	-11%
CCOC(=O)C1CCCc2c1[nH]c1ccc(Cl)cc21 (centres undefined)	3%	-1%
Cc1ccc(O)c(NC(=O)c2cc3nc4c(c(C(F)(F)F)n3n2)CCc2ccccc2-4)c1	-14%[1.46 µM]	-7%
COC(=O)c1cc(Nc2cc(C)nc3ncnn23)cc(C(=O)OC)c1	-6%	4%
COc1ccc(OC)c(-n2cnc3cc(C(=O)NCCCN4CCOCC4)ccc32)c1	.	-7%
COc1ccc(CNC(=O)CN(Cc2ccc(OC)cc2)C(=O)CCC(=O)Nc2ccccn2)cc1	i	-16%
COc1ccc(CNC(=O)C(NC(C)=O)C(=O)Nc2ccc(OC)cc2)cc1 (centres undefined)	.	-17%
NC(=O)CCSC(=S)N1CCOCC1	-24%	-18%
Cc1ccccc1CN(C)CC(=O)Nc1ccccc1Oc1ccccc1	-10%	-8%
O=C(CCN1CCc2ccccc21)c1ccc2c(c1)OCCO2	-9%	-4%

At a glance, seven of the compounds above:
structure	VACV mCherry inh	VACV Venus inh
COc1ccccc1NC(=O)c1cc2c(cc1Cl)N1CCCCCC1=NS2(=O)=O	-13%	-11%
CCOC(=O)C1CCCc2c1[nH]c1ccc(Cl)cc21 (centres undefined)	3%	-1%
Cc1ccc(O)c(NC(=O)c2cc3nc4c(c(C(F)(F)F)n3n2)CCc2ccccc2-4)c1	-14%[1.46 µM]	-7%
COC(=O)c1cc(Nc2cc(C)nc3ncnn23)cc(C(=O)OC)c1	-6%	4%
COc1ccc(OC)c(-n2cnc3cc(C(=O)NCCCN4CCOCC4)ccc32)c1	.	-7%
COc1ccc(CNC(=O)CN(Cc2ccc(OC)cc2)C(=O)CCC(=O)Nc2ccccn2)cc1	i	-16%
COc1ccc(CNC(=O)C(NC(C)=O)C(=O)Nc2ccc(OC)cc2)cc1 (centres undefined)	.	-17%

Later entries:
structure	VACV mCherry inh	VACV Venus inh
O=C1c2ccccc2C(=O)N1CCCc1c[nH]c2ccc(Cl)cc12	-16%	-22%
Cc1ccc(C(=O)NC2CCS(=O)(=O)C2)cc1S(=O)(=O)N1CCCC1 (centres undefined)	i	-14%
CC1CCCCC1NC(=O)c1cc(=O)[nH]c2ccccc12 (centres undefined)	-19%	-2%
COc1ccc2c(c1)c(=O)c(S(=O)(=O)c1ccc(F)cc1)cn2CC(=O)Nc1ccc(C)cc1C	-13%	-4%
CC(=O)N1CCN(S(=O)(=O)c2cccc(C(=O)OCN3C(=O)c4ccccc4C3=O)c2)CC1	i	-4%
O=C(NCc1ccc(Cl)cc1)c1ncn[nH]1	-26%	-3%
Cc1cc2c(c(=O)n1CCN(C)C)C(c1ccc(Br)cc1)C(C#N)=C(N)O2 (centres undefined)	-17%[1.46 µM]	-14%
COc1ccc(B(O)O)c(CN2CCN(C(=O)OC(C)(C)C)CC2)c1	i	-11%
O=C(c1ccco1)N1CCN(C(=O)c2cccc3c2C(=O)N(Cc2cccnc2)C3)CC1	i	-7%
O=C(CC1C(=O)NCCN1Cc1ccc(F)c(F)c1)NCCn1cccn1 (centres undefined)	-3%	-11%
COc1ccc(CCNC(=O)C(=O)NCC2OCCN2S(=O)(=O)c2cc(F)ccc2F)cc1 (centres undefined)	-7%	-18%
Cc1cccc(-n2nnc(C(=O)NCc3ccccc3)c2N)c1	i	-13%
CCCCOc1ccc(-c2nnn(CC(=O)NCCc3c[nH]c4ccccc34)n2)cc1	?	?
O=C(CNS(=O)(=O)c1cccc2nsnc12)NC1CCCCC1	-11%	-12%
N#Cc1nc(-c2ccc(F)cc2)oc1N1CCN(C(=O)c2ccco2)CC1	-13%	-3%
CCC1(CC)NC(=O)N(CC(=O)Nc2ccc(C)cc2C)C1=O	-19%	-9%
O=C(Nc1ccc2c(c1)Cc1ccccc1-2)c1ccc(Br)o1	.	-12%
Cn1c(CNC(=O)C2CCC(=O)N(CCc3cccc(F)c3)C2)nc2ccccc21 (centres undefined)	-19%	-11%
O=C(Nc1ccc2sccc2c1)c1cccc(N2C(=O)CCC2=O)c1	i	-4%
O=C(CNS(=O)(=O)Cc1ccccc1)NNc1ccccc1	i	-9%
CCCn1c(CCC(=O)O)ccc1-c1cccs1	-8%	-14%
C=CCNC(=O)COC(=O)CCC(=O)c1cccs1	i	0%
O=C(CCCOc1ccccc1)N1CCCc2ccccc21	i	-10%
O=C(COc1ccccc1)NC(NC(=S)Nc1ccccc1C(=O)O)C(Cl)(Cl)Cl (centres undefined)	-6%	-3%
CCCCn1c(SCC(=O)N2CCCC2=O)nc2cc(S(N)(=O)=O)ccc21	-4%	-11%
COc1cc2c(cc1OC)C13CCN4CC5=CCOC(CC(=O)O)C(C5CC41)C3N2 (centres undefined)	-2%	-5%
Cc1ccc(NS(=O)(=O)c2ccc3c(c2)NC(=O)CCS3)c(Br)c1	-13%&-3%	-6%&4%
COC(=O)C(NC(=O)c1ccco1)(Nc1nc(C2CC2)cs1)C(F)(F)F (centres undefined)	-6%	-4%
Nc1ncnc(Nc2cccc(F)c2)n1	i	-23%
O=C(Oc1ccccc1-c1csnn1)c1cccs1	-11%	3%
Cc1cc(C(=O)Cn2nc(C(=O)O)c3ccccc3c2=O)c(C)n1-c1ccc(F)cc1	-10%	-12%
FC(F)(F)c1cccc(-c2nnn3c2nc(NC2CCCCC2)c2ccccc23)c1	-18%	-11%
O=C(COc1ccccc1Cl)Nc1cc(Cl)ccc1Oc1ccccc1	.	-3%
CCOC(=O)c1cc(C)sc1NC(=O)CSC1=NCCS1	-24%	?
Cc1ccc(CCNS(=O)(=O)c2ccc3c(c2)NC(=O)C(C)C(=O)N3)cc1 (centres undefined)	-8%	-30%
Cc1nc(N=C(N)N)nc2ccccc12	-17%	-17%
CC(=O)N/C(=C\c1ccccc1)C(=O)OCC(=O)Nc1cc(S(=O)(=O)N(C)C)ccc1Cl	i	-10%
O=C(/C(=C/c1ccc(Cl)cc1)c1nc2ccccc2[nH]1)c1ccccc1	?	?
S=C(NCc1ccccc1Cl)NC1CCCC1	-7%	-5%
CCOC(=O)c1cc(C)n(CC2CCC(C(=O)Nc3ccc(C(=O)OC)cc3)CC2)c1C (centres undefined)	-6%	-8%
COc1ccc(-c2cc(C(=O)N3CCCCCC3)c3ccccc3n2)cc1	?	-23%
N#CCN1C(=S)N=C(Nc2cccc(Cl)c2)C12CCCCC2	.	?
CC1=C(C(=O)N(C(C)C)C(C)C)CC(CC(=O)NC2CCCC2)C(=O)N1CCC1=CCCCC1 (centres undefined)	15%	-15%
COC(=O)c1cccc2c1-c1ccccc1/C2=N/O	.	?
CCC1C(=O)NCCN1C(=O)c1ccc(OC)c(OC2CCN(C(C)=O)CC2)c1 (centres undefined)	i	-7%
CCN(CCNC(=O)C1CCN(S(=O)(=O)c2cccc3cccnc23)CC1)c1ccccc1	i	-7%
O=C(NCc1ccccc1)N1CCN(c2ccccc2F)CC1	.	-18%
O=C(Cn1nc(CNc2ccc(Cl)cc2)[n+]2c1CCCCC2)c1ccccc1	-3%	-6%
O=C(CN1C(=O)C2C3CC(C(Br)C3Br)C2C1=O)N1CCOCC1 (centres undefined)	-9%	4%
Cc1ccc(S(=O)(=O)N2CCN(Cc3cc(Br)ccc3O)CC2)cc1	-8%	-17%
Cc1ccc(C(=O)Nc2cccc(NC(=O)c3ccc(C)c([N+](=O)[O-])c3)n2)cc1[N+](=O)[O-]	-3%	-2%
COc1cccc(-c2cc(C(=O)NCc3ccc(F)cc3)no2)c1	0%	0%
NC(=O)c1ccc(NC(=O)COC(=O)c2c[nH]c3ccccc23)cc1	-15%	-14%
O=C(CSc1nc2c([nH]c3ccccc32)c(=O)n1-c1ccccc1)Nc1ccccc1F	-3%	-7%
COCCNc1ncnc2c1cnn2-c1cc(Cl)ccc1C	-4%	-2%
O=C(c1cccc(S(=O)(=O)N2CCCCC2)c1)N1CCOCC1	-19%	-17%
CC1=C(C(=O)N2CCOCC2)CC(CC(=O)NCCN2CCOCC2)C(=O)N1Cc1ccc(C(C)(C)C)cc1 (centres undefined)	i	-15%
Cc1ccc(-c2c(C#N)c(N)n(-c3ccccc3)c(=O)c2C#N)cc1	-8%	-9%
CC1=NN(c2ccccc2)C(=O)/C1=C\C=C\c1ccccc1	-4%	0%
COc1ccccc1CNS(=O)(=O)c1ccc(N2CCCC2)cc1Br	-24%	-21%

Additional records
structure	VACV mCherry inh	VACV Venus inh
Cc1ccc(C)c(Cn2cnc3c(cnn3-c3ccc(F)cc3)c2=O)c1	-3%	-10%
COc1ccccc1/C=C/C=N/n1c(-c2ccccc2)n[nH]c1=S	-12%	-19%
CCOC(=O)C1Cn2c(nc3c(c2=O)C2(CCCC2)Cc2ccccc2-3)S1 (centres undefined)	.	?
Cc1nnc(SCc2ccccc2)[nH]c1=O	i	-10%
COC(=O)C1=C(N)Oc2cc(C)n(Cc3cccnc3)c(=O)c2C1c1cccc(OC)c1OC (centres undefined)	i	-15%
CC(C)c1ccc(N(C(=O)CNC(=O)c2ccco2)C(C(=O)NC2CCCC2)c2cccnc2)cc1 (centres undefined)	-14%	1%
O=C(O)C1=C[C@@H](c2ccc(F)cc2)C[C@@H](OCCCCO)O1	i	-4%
COc1cc(C(c2c(C)[nH][nH]c2=O)c2c(C)[nH][nH]c2=O)cc([N+](=O)[O-])c1O	4%	2%
O=S(=O)(Nc1nccs1)c1ccc(NS(=O)(=O)c2c(F)cc(F)c(Cl)c2F)cc1	-22%	-11%
C=CCNCC(=O)Nc1ccccc1SCC(=O)Nc1ccsc1C(=O)OC	i	-5%
CCc1ccc(CN2C(=O)c3ccccc3C2C(=O)NC2CCCCCC2)cc1 (centres undefined)	2%	10%
Cc1ccc(NC(=O)CSc2ccc(-c3ccc(-n4cccn4)cc3)nn2)c(C)c1	-10%	-7%
Cn1nc(C2CC2)cc1NC(=O)C1(C)CCN1C(=O)CCc1ccccc1 (centres undefined)	5%	7%
CC(=O)NC(C)c1ccc(Cl)c(Cl)c1 (centres undefined)	-4%	-20%
COC(=O)CCC(=O)NC(=S)Nc1ccc(S(=O)(=O)Nc2cc(OC)nc(OC)n2)cc1	-14%	-10%
O=C1C=C(c2cc3ccccc3s2)CCC1	-25%	-21%
COc1ccccc1N(CC(=O)N1CCc2ccccc2C1)S(C)(=O)=O	17%	4%
O=C(Nc1ccc(F)cc1)OCCOc1ccc(Br)cc1	-8%	-22%
COc1ccc(N(C(=O)COc2ccccc2)C2C=CS(=O)(=O)C2)cc1 (centres undefined)	2%	-2%
CNc1cncc(-c2cccc(C(=O)N(C)C)c2)n1	13%	-3%
Cc1ccc(NC(=O)c2ccc(-n3nncc3-c3ccccc3)cc2)cc1	-9%	-12%
CCc1ccc(S(=O)(=O)Nc2ccc(-c3ccc4nncn4n3)cc2)s1	-25%	-15%
CCC(=O)N1CCC(NC(=O)Nc2ccc(OC(F)(F)F)cc2)CC1	-3%	-2%
COC(=O)c1sc2cc(C(F)(F)F)cnc2c1-c1ccccn1	-1%	-5%
CCOc1cc(/C=N/NC(=O)OC)ccc1OCCSc1ccc(Cl)cc1	-14%	5%
Cc1ccc(C)c(NS(=O)(=O)c2cc3c(cc2Cl)NC(=O)CO3)c1	-6%	-8%
O=C1COc2cc(S(=O)(=O)CCC(=O)N3CCN(c4ccccc4F)CC3)c(Cl)cc2N1	-11%	-7%
COc1cc2ccccc2cc1C(=O)OCC(=O)N1CCOCC1	.	-15%
CC(OC(=O)c1ccc2ncsc2c1)C(=O)NC1CCCCC1C (centres undefined)	-14%	-20%
Cc1ccc(CNC(=S)Nc2ccc(C)c([N+](=O)[O-])c2)cc1	i	-9%
CC(C)(Oc1ccc(Cl)cc1)C(=O)Nc1ccc(S(=O)(=O)Nc2ncccn2)cc1	0%	-4%
CC(C)(C)C1CCC(C(=O)NNC(=O)c2ccncc2)CC1 (centres undefined)	-3%	-24%
